Assay outcomes as filed in PubChem BioAssay.
Lassa entry inh – Lassa virus entry inhibition. Lassa virus pseudotype entry inhibition, cell reporter; control for the full effect not named in the record. Potency, µM (titrated, usually from 37.9 µM), for the others: at the highest dose activity change, negative = inhibition, actives largely listed as inhibitors. 1.2% of 300,000 active. AID 540256; active means well fitted inhibition curve with a large enough effect; inconclusive means small, poorly fitted or top-dose-only effect, or effect the other way; inactive means flat fitted curve, though single readings scatter; tested in HEK293 cells; further: on the % scale 0 is the no-effect control and ±100 the full control effect; nearly all actives have a fitted effect of over 50% in size; luciferase read-out
Marburg entry inh – inhibitors of Marburg virus binding or cell entry | Marburg virus pseudotyped entry inhibition, cell reporter; control for the full effect not named in the record; about a third of the inactives were read at about 46 µM | Potency, µM (titrated, usually from 37.8 µM), for the others: at the top dose activity change, negative = inhibition, most hits filed as inhibitors | 1.8% of 300,000 active | AID 540276; active = well fitted inhibition curve with a large enough effect; inconclusive = small, poorly fitted or top-dose-only effect, or effect the other way; inactive = flat fitted curve, though single readings scatter; tested in HEK293 cells; about a fifth of its hits are not listed in these tables; further: on the % scale 0 is the no-effect control and ±100 the full control effect; luciferase read-out
Cruzain noTriton – inhibitors of Trypanosoma cruzi cruzain without detergent. P25779. purified cruzain, Z-FR-AMC fluorescence, no detergent. Potency, µM, for the others: max response, negative = inhibition, actives largely listed as inhibitors. 2.3% of 200,000 active. AID 1476; active means well fitted curve in the direction sought with a large enough effect; inconclusive means small, poorly fitted or top-dose-only effect, or another doubt; inactive means no such curve, though single readings can be large; an effect the other way counts as inactive or inconclusive;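 further: plate controls were enzyme without inhibitor for no effect and buffer without enzyme for full effect; nearly all actives have a fitted effect of over 40% in size; top concentration of the series not given in the record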
Target sequence (P25779 123-467 limits assumed): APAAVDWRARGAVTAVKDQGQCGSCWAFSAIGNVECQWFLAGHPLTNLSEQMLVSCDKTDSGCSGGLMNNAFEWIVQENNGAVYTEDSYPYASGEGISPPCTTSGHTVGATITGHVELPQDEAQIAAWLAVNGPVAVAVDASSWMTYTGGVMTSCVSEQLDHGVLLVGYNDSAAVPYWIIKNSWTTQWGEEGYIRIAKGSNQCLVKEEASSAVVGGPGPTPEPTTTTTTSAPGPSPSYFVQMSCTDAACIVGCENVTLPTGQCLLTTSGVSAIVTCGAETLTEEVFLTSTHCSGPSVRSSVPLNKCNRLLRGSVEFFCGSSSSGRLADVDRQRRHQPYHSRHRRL
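Purified cruzain at 1.5 nM, pre-incubated 15 min with compound at room temperature in 100 mM sodium acetate pH 5.5, 5 mM DTT, 0.00005% Triton X-100. Reaction started with 2 uM Z-FR-AMC; AMC fluorescence increase over 60 s gives rate.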
Cruzain inh Det – inhibitors of Trypanosoma cruzi cruzain with detergent; Potency, µM, without a hit: max response, negative = inhibition, usual class: inhibitors; 0.43% of 200,000 active; AID 1478; purified cruzain, Z-FR-AMC fluorescence, 0.01% Triton; active means well fitted curve in the direction sought with a large enough effect; inconclusive means small, poorly fitted or top-dose-only effect, or another doubt; inactive means no such curve, though single readings can be large; an effect the other way counts as inactive or inconclusive;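 further: plate controls were neutral wells for no effect and buffer without enzyme for full effect; nearly all actives have a fitted effect of over 40% in size; top concentration of the series not given in the record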
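15 min RT preincubation of 1.5 nM cruzain with compound, then 2 uM Z-FR-AMC added; kinetic AMC fluorescence, 60 s delta. Triton X-100 0.01%, pH 5.5.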
RE007 growth inh – less growth of the S. pombe RE007 Vpr strain; AID 651644; Potency, µM (highest dose often 92.2 µM), without a hit: at the highest dose activity change, negative = less growth; 0.21% of 360,000 active; S. pombe RE007 Vpr strain, BacTiter-Glo ATP luminescence, 24 h; control for the full effect not named in the record; active = well fitted falling curve with a large enough effect; inconclusive = small, poorly fitted or top-dose-only effect; inactive = no such curve, though single readings can be large or run the other way;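 further: on the % scale 0 is the no-effect control and ±100 the full control effect; nearly all actives have a fitted effect of over 50% in size; the assay follows cell death caused by Vpr and the record does not say whether a fall means rescue or toxicity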
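Fission yeast RE007 carrying one integrated HIV-1 vpr copy, seeded at OD 0.01 in PMG+AL medium with 23 nL pinned compound. Grown 24 h at 30 degrees; viability read by BacTiter-Glo luminescence after 5 min.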
NS1 function inh – influenza NS1 inhibition. Potency, µM (highest dose often 46.1 µM), for inactives: top-dose activity, positive = more growth. S. cerevisiae slowed by influenza A NS1, growth recovery by OD600. 0.4% of 270,000 active; further: actives are rising curves; nearly all actives have a fitted effect of over 50% in size
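Recovery from NS1-induced slow growth read by OD600 in budding yeast switched to galactose assay medium (pH 6.0, -URA) at 1:100 dilution. Compound 23 nl per well; the matching strain lacking NS1 serves as control.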
StopGo reporter – lowers the luciferase signal of an FMDV 2A StopGo reporter; AID 1159524; 1.2% of 410,000 active; Potency, µM (doses to about 57.9 µM), inactives show at the highest dose signal change, negative = less light; human cells with a luciferase reporter of 2A StopGo recoding; control for the full effect not named in the record; active = well fitted falling curve with a large enough effect; inconclusive = small, poorly fitted or top-dose-only effect; inactive = no such curve, though single readings can be large or run the other way; tested in HEK293T cells; further: on the % scale 0 is the no-effect control and ±100 the full control effect; nearly all actives have a fitted effect of over 45% in size; luciferase light after 4 h
SARS PLP yeast – inhibitors of SARS-CoV papain-like protease in yeast. Potency, µM (highest dose often 32.9 µM), for the others: at the top dose activity, positive = growth rescue. AID 485353. 0.19% of 330,000 active. S. cerevisiae expressing SARS-CoV PLpro, growth rescue; control for the full effect not named in the record; further: 0% is about no effect; nearly all actives have a fitted effect of over 55% in size; growth read by luminescence after 48 h
Starred values were filed as active, the others as inactive; ? = inconclusive; · = not tested or not shown; & = joins results of further samples; [ ] = dose if it differs, or a comment. Unless noted, the call rests on the fitted dose curve; in most records, active means well fitted rising curve with a large enough effect; inconclusive means small, poorly fitted or top-dose-only effect; inactive means no such curve, though single readings can be large or run the other way. Potency means the concentration at half of the fitted maximal effect.

SMILES	Lassa entry inh	Marburg entry inh	Cruzain noTriton	Cruzain inh Det	RE007 growth inh	NS1 function inh	StopGo reporter	SARS PLP yeast
O=c1[nH]c(SCCOc2cccc3ccccc23)nc2ccccc12	?	2.8µM*	·	·	-21%	·	0%	2%
CCNC(=O)C1CN(S(=O)(=O)c2ccccc2)CCN1S(=O)(=O)c1ccccc1 (stereo unspecified)	0%	6%	5%	1.7%	-1%	3%	34%[activator]	-4%
CN1CCN(C(CNC(=O)c2cccc(F)c2)c2ccc3c(c2)OCO3)CC1 (stereo unspecified)	24%[46.1 µM]	·	-2%	-0.6%	·	·	-11%	·
CCn1c(SCc2ccc(C#N)cc2)nnc1-c1ccc(S(=O)(=O)N2CCCCC2)cc1	?	-18%&-18%	12%	2.0%	3%	10%	?	0%
CCOC(=O)N1CCN(c2ccncc2S(=O)(=O)N2CCCCC2)CC1	11%	-10%	·	·	-7%	-81%	-4%	-14%
COC(=O)Cn1cc(C(=O)c2ccco2)c2ccccc21	-1%	?	-9%	-2.9%	5%	-53%	1%	-9%
Cc1cc(N2CCOCC2)ccc1/C=C1\NC(=O)N(CC(=O)Nc2ccccc2C)C1=O	0%	?	1%	0.5%	2%	-5%	29%	0%
CC(C)Cn1c(N2CCN(C(=O)c3cccs3)CC2)nc2ccccc21	?	?	-2%	1.5%	11%	-36%	?	4%
Cc1oc(CSCCSCc2cc(C(=O)O)c(C)o2)cc1C(=O)O	·	·	·	·	4%	?	-1%	-4%
Cc1cccc(NC(=O)CN2C(=O)C(c3ccccc3)=NC23CCC(C)CC3)c1 (stereo unspecified)	?	?	?	-8.4%	·	·	-27%	·
O=C1CCCN1CCNC(=S)Nc1ccccc1	19%	3%	-4%	0.2%	-18%	5%	·	-7%
CC(C)CCN(CC(=O)NCc1ccc(F)cc1)S(=O)(=O)c1ccccc1F	?	?	·	·	-21%	2%	0%	3%
COc1cc(CNC(C)c2ccccc2)cc(Cl)c1OCC(=O)Nc1ccccc1 (stereo unspecified)	·	·	·	·	-9%	-14%	?	-1%
CC1=CCC(C(=O)O)C(C(=O)NC2CCCCC2)C1 (stereo unspecified)	15%	-25%[46.1 µM]	·	·	8%	-2%	-2%	-3%
CC1C[C@@]2(NC(=O)NC2=O)C(C)CN1C (stereo partly specified)	5%	0%	14%	4.1%	-11%	4%	-14%	0%
Cc1ccc(N2CCN(C(=O)c3ccccc3NC(=O)c3ccccc3C(=O)O)CC2)cc1	?	11%	-1%	-0.4%	-16%	24%	0%	19%
Cc1cccc(-n2c(Cc3cc(=O)[nH]c(=O)[nH]3)nnc2SCC(=O)N2CCCCC2)c1	·	4%	1%	2.8%	-6%	6%	-2%	8%
CC(=C/c1ccco1)/C=N/NC(=O)Cc1cccn1C	16%	-1%	-7%	-13%	-8%	9%	32%[activator]	-32%
COc1cc(OC)c(NC(=O)c2cc3c(s2)-c2ccc(Cl)cc2SC3)cc1Cl	17%[46.1 µM]	5%[46.1 µM]	-14%	-2.8%	·	·	47%[activator]	·
O=[N+]([O-])c1ccc(-c2ccc(/C=N/O)o2)cc1	?	?	·	·	46%	-41%	-5%	-2%
CC(C)C(=O)N1CCC2(CC1)Oc1ccc(Cl)cc1C(=O)C21CC(c2ccc(Cl)cc2)=NO1 (stereo unspecified)	·	·	·	·	13%	-1%	-23%	2%
O=C(CCCN1C(=O)c2cccc3cccc(c23)C1=O)N1CCN(Cc2ccc3c(c2)OCO3)CC1	?	?	-3%	1.9%	8%	1%	?	9%
COc1ccc(OC)c(NC(=O)CSc2nnc(CNC(=O)c3cc(OC)c(OC)c(OC)c3)o2)c1	9%[46.1 µM]	?	·	·	1%	6%	1%	·
COc1ccc(NC(=O)CN(c2ccc(C)cc2)S(=O)(=O)c2c(C)nn(C)c2C)cc1OC	-3%	3%&-4%	?	-0.7%	-10%	8%	-21%	-2%
COc1ccc(S(=O)(=O)N(CCCN2CCCC2=O)Cc2cc3c(C)cc(C)cc3[nH]c2=O)cc1	-15%	?	?	19%	-14%	-10%	0%	3%
C/C(=N\Nc1nccnc1Cl)c1ccc(O)c(C)c1	?	?	·	·	0%	1%	25%	7%
O=S(=O)(c1ccc(-c2csc(=Nc3ccccc3)n2CCCN2CCOCC2)cc1)N1CCOCC1	-1%	?	1%	3.2%	-2%	-57%	-13%	-3%
O=C(CN1C(=O)c2ccccc2S1(=O)=O)c1ccc2c(c1)OCCCO2	·	·	·	·	19%	5%	3.2µM*	1%
O=C(Cc1ccsc1-c1ccccc1)NO	-22%	-29%	-4%	-1.4%	5%	?	-18%	2%
COCCn1c(C)cc(O)c(C(c2ccc(Cl)cc2)N2CCN(c3ccccc3)CC2)c1=O (stereo unspecified)	23%[46.1 µM]	·	17%	1.4%	·	·	-25%	·
Cn1c(/C(C#N)=C/c2ccccc2Br)nc2ccccc21	?	·	-14%	0.1%	·	·	-16%	·
COc1cccc(NC(=O)CSc2nc(-c3ccccc3Cl)nc3c2Cc2c(CO)cnc(C)c2O3)c1	-9%[46.1 µM]	·	-3%	-2.4%	·	·	-17%	·
O=[N+]([O-])c1cccnc1Oc1ccc(F)cc1	?	-30%[46.1 µM]	·	·	12%	5%	10%	0%
CC(C)Sc1nc2c(c(=O)n1-c1ccc(F)cc1)SCC2	-13%	-18%	-6%	-0.3%	0%	-31%	?	-1%
COc1ccc(NC(=O)c2oc3ccc(S(=O)(=O)N(C)C4CCCCC4)cc3c2C)cc1	?	·	-8%	0.4%	·	·	?	·
Nc1c(Cl)ncnc1N/N=C/c1cccc(O)c1	·	·	·	·	-23%	-55%	45%[activator]	-1%
CCCCNS(=O)(=O)c1ccc2nc(SCC(=O)N3CC(C)OC(C)C3)[nH]c2c1 (stereo unspecified)	-30%	-12%	2%	2.9%	3%	4%	22%	5%
CCN(C(=O)Cn1c(=O)oc2cc(S(=O)(=O)N3CCOCC3)ccc21)c1ccccc1	·	·	·	·	14%	3%	-25%	0%
O=C(COc1cc2oc(=O)cc(-c3ccccc3)c2cc1Cl)NC(Cc1c[nH]c2ccc(O)cc12)C(=O)O (stereo unspecified)	·	·	·	·	4%	-7%	-18%	5%
Cc1cccc(N2CCN(S(=O)(=O)c3ccc(-c4cc(C(F)(F)F)on4)s3)CC2)c1C	4%[46.1 µM]	·	-18%	3.5%	·	·	-22%	·
NC(=O)COC(=O)c1ccc(Cl)c(S(=O)(=O)N(Cc2ccccc2)c2ccc(Cl)cc2)c1	-17%	?	?	-11%	4%	20%	-9%	-31%
NC(=O)c1ccc(N2CCN(c3ccc(O)cc3)CC2)c([N+](=O)[O-])c1	-30%	?	·	·	7%	3%	?	-1%
CCCc1[nH]nc2c1C1(CCOC1C)C(C#N)=C(N)O2 (stereo unspecified)	3%	1%	-3%	1.4%	7%	-2%	-17%	2%
CCC(=O)Nc1cccc(-c2nc3ncccc3o2)c1C	·	·	·	·	5%	-2%	-20%	-2%
CC1C(=O)CC(c2ccccc2)NC1c1ccccc1 (stereo unspecified)	1%	-14%	17%	5.5%	-9%	-1%	·	13%
CCS(=O)(=O)N1CCc2cc(C(=O)N3CCN(c4ccc(OC)cc4)CC3)ccc21	?	-2%[46.1 µM]	0%	-3.4%	·	·	52%[activator]	·
CC(C)(C)n1nnnc1C(c1cccc(C#N)c1)N1CCN2CCCC2C1 (stereo unspecified)	15%	-8%	-1%	3.0%	-11%	-3%	·	2%
CCOc1ncccc1C(=O)OCc1c(Cl)cccc1Cl	-6%	13%	0%	0.2%	-10%	-10%	4%	8%
CCCn1c(N)c(C(=O)CSc2nc3ccccc3c(=O)n2Cc2ccccc2)c(=O)[nH]c1=O	-9%	5%[46.1 µM]	·	·	-6%	·	-18%	2%
CCOC(=O)C1=C(C)C2C3C(=O)N(c4ccc(C)cc4C)C(=O)C3C1(C)C1C(=O)N(c3ccc(C)cc3C)C(=O)C21 (stereo unspecified)	31%	8%	?	-6.0%	11%	15%	-16%	-5%
COc1ccc(C(=O)N/C(=C\c2cccs2)C(=O)N2CCN(C)CC2)cc1OC	2%	17%	·	·	-4%	2%	7%	1%
Cc1cccc(NS(=O)(=O)c2csc(C(N)=O)c2)c1C	·	·	·	·	1%	-1%	-12%	1%
O=C(Nc1ccccc1-c1nc2ccccc2[nH]1)c1ccc(S(=O)(=O)N2CCCCC2)cc1	-10%	3%&-1%	10µM*	-3.8%	14%	11%	16%	0%
CCCOc1ccc(S(=O)(=O)Nc2ccccn2)c2ccccc12	-2%	-2%	·	·	2%	31%	67%[activator]	1%
COc1ccc(N(CC(=O)NC2CCCCC2)S(=O)(=O)c2c(C)[nH]c(=O)[nH]c2=O)cc1	·	·	8%	-0.6%	4%	1%	-3%	-1%
Cn1c(SCC(=O)Nc2ccccc2-c2ccccc2)nnc1-c1ccco1	1%	0%	-9%	12%	?	-15%	-6%	18%
CCn1cc(CN2CCC(C(=O)Nc3ccc(Oc4ccccc4F)cc3)CC2)c(C)n1	-24%	?	·	·	-11%	-8%	?	-4%
Cc1cc(C)c2nc(NC(=O)C3CC(=O)N(Cc4ccco4)C3)sc2c1 (stereo unspecified)	-10%	?	·	·	8%	·	-13%	1%
COc1ccccc1C(=O)NC(=S)NNC(=O)c1sc2ccccc2c1Cl	?	?	2.5µM*	9.0%	12%	25%	0%	-27%
Cc1cccc(N2CCN(C(=O)c3cccc(-n4c(C)nc5cccnc54)c3)CC2C)c1 (stereo unspecified)	?	·	?	-3.6%	·	·	18µM*	·
COc1ccc(N(CC(=O)NCc2ccco2)C(=O)CNS(=O)(=O)c2ccc(Cl)cc2)cc1	?	?	·	·	1%	-10%	6%	-1%
COc1ccc(CNC(=O)CCS(=O)(=O)c2cccc3nonc23)cc1	-9%	-18%	-7%	-0.6%	-9%	-2%	7%	2%
